Source: PubChem BioAssay (National Center for Advancing Translational Sciences (NCATS))
Marburg entry inh = inhibitors of Marburg virus binding or cell entry; Marburg virus pseudotyped entry inhibition, cell reporter; control for the full effect not named in the record; about a third of the inactives were read at about 46 µM; Potency, µM (doses to about 37.8 µM), for inactives: top-dose activity change, negative = inhibition, most hits filed as inhibitors; hit rate 1.8% among 300,000; active = well fitted inhibition curve with a large enough effect; inconclusive = small, poorly fitted or top-dose-only effect, or effect the other way; inactive = flat fitted curve, though single readings scatter; tested in HEK293 cells; about a fifth of its hits are not listed in these tables; also: % is scaled to controls: 0 for no effect and ±100 for the full control effect; luciferase read-out
NS1 function inh = inhibitors of influenza NS1 protein function | S. cerevisiae slowed by influenza A NS1, growth recovery by OD600 | Potency, µM (series often up to 46.1 µM), for inactives: at the top dose activity, positive = more growth | hit rate 0.4% among 270,000 | AID 2326; active means well fitted rising curve with a large enough effect; inconclusive means small, poorly fitted or top-dose-only effect; inactive means no such curve, though single readings can be large or run the other way; also: nearly all actives have a fitted effect of over 50% in size
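S. cerevisiae expressing influenza A NS1, grown in glucose, washed, then diluted 1:100 into pH 6.0 -URA galactose medium with 23 nl compound. Growth recovery read as OD600; NS1-free strain serves as control.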
2A StopGo = FMDV 2A StopGo reporter, luciferase signal | AID 1159524 | human cells with a luciferase reporter of 2A StopGo recoding; control for the full effect not named in the record | hit rate 1.2% among 410,000 | Potency, µM (doses to about 57.9 µM), without a hit: top-dose signal change, negative = less light; active = well fitted falling curve with a large enough effect; inconclusive = small, poorly fitted or top-dose-only effect; inactive = no such curve, though single readings can be large or run the other way; tested in HEK293T cells; also: % is scaled to controls: 0 for no effect and ±100 for the full control effect; nearly all actives have a fitted effect of over 45% in size; luciferase light after 4 h
RE007 growth inh = less growth of the S. pombe RE007 Vpr strain | S. pombe RE007 Vpr strain, BacTiter-Glo ATP luminescence, 24 h; control for the full effect not named in the record | Potency, µM (series often up to 92.2 µM), for the others: top-dose activity change, negative = less growth | hit rate 0.21% among 360,000; active = well fitted falling curve with a large enough effect; inconclusive = small, poorly fitted or top-dose-only effect; inactive = no such curve, though single readings can be large or run the other way;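 also: % is scaled to controls: 0 for no effect and ±100 for the full control effect; nearly all actives have a fitted effect of over 50% in size; the assay follows cell death caused by Vpr and the record does not say whether a fall means rescue or toxicity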
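Fission yeast strain RE007, carrying one chromosomally integrated HIV-1 vpr copy, was seeded at OD 0.01 in PMG+AL medium with 23 nL pinned compound. After 24 h at 30 °C and 99% humidity, viability was read by BacTiter-Glo luminescence.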
Cruzain inh noDet = inhibitors of Trypanosoma cruzi cruzain without detergent; purified cruzain, Z-FR-AMC fluorescence, no detergent; Potency, µM, without a hit: max response, negative = inhibition, most hits filed as inhibitors; hit rate 2.3% among 200,000;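 also: plate controls were enzyme without inhibitor for no effect and buffer without enzyme for full effect; nearly all actives have a fitted effect of over 40% in size; top concentration of the series not given in the record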
Target sequence (P25779 123-467 limits assumed): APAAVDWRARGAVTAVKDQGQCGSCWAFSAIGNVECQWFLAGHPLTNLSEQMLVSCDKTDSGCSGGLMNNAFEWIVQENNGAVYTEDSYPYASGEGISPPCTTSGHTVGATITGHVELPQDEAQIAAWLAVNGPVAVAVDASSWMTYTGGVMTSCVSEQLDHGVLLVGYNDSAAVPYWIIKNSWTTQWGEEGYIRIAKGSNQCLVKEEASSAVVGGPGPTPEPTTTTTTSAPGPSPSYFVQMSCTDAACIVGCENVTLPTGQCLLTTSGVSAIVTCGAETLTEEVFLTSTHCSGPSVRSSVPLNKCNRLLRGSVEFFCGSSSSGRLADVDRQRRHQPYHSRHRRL
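Detergent-free condition (0.00005% Triton X-100) in acetate buffer pH 5.5 with DTT. 1.5 nM enzyme and compound were pre-mixed 15 min, then 2 uM Z-FR-AMC substrate added; reaction progress from fluorescence change between first and third reads (60 s).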
Cruzain Triton = cruzain (T. cruzi) inhibition with detergent | P25779 | purified cruzain, Z-FR-AMC fluorescence, 0.01% Triton | Potency, µM, inactives show max response, negative = inhibition, hits mostly inhibitors | hit rate 0.43% among 200,000 | AID 1478;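 also: plate controls were neutral wells for no effect and buffer without enzyme for full effect; nearly all actives have a fitted effect of over 40% in size; top concentration of the series not given in the record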
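Cruzain (1.5 nM) preincubated 15 min at RT with compound in 100 mM sodium acetate pH 5.5, 5 mM DTT, 0.01% Triton X-100. Reaction started with 2 uM Z-FR-AMC; AMC fluorescence (ex 360/em 450 nm) change over 60 s gave rate.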
SARS PLpro yeast = inhibitors of SARS-CoV papain-like protease in yeast. S. cerevisiae expressing SARS-CoV PLpro, growth rescue; control for the full effect not named in the record. Potency, µM (titrated, usually from 32.9 µM), without a hit: at the highest dose activity, positive = growth rescue. hit rate 0.19% among 330,000; active means well fitted rising curve with a large enough effect; inconclusive means small, poorly fitted or top-dose-only effect; inactive means no such curve, though single readings can be large or run the other way; also: 0% is about no effect; nearly all actives have a fitted effect of over 55% in size; growth read by luminescence after 48 h
Lassa entry inh = blocks Lassa virus binding to or entry into cells; Potency, µM (highest dose often 37.9 µM), without a hit: top-dose activity change, negative = inhibition, most hits filed as inhibitors; AID 540256; Lassa virus pseudotype entry inhibition, cell reporter; control for the full effect not named in the record; hit rate 1.2% among 300,000; active means well fitted inhibition curve with a large enough effect; inconclusive means small, poorly fitted or top-dose-only effect, or effect the other way; inactive means flat fitted curve, though single readings scatter; tested in HEK293 cells; also: % is scaled to controls: 0 for no effect and ±100 for the full control effect; nearly all actives have a fitted effect of over 50% in size; luciferase read-out
An asterisk follows results filed as active; ? = inconclusive; / = not tested or not shown; & = joins results of further samples; [ ] = dose if it differs, or a comment. Unless noted, calls follow the shape of the dose curve; as a rule, active = well fitted curve in the direction sought with a large enough effect; inconclusive = small, poorly fitted or top-dose-only effect, or another doubt; inactive = no such curve, though single readings can be large; an effect the other way counts as inactive or inconclusive. Potency is read from the fitted curve at half-maximal effect. This is a random part of the collection (roughly 4.6% active in at least one column).

Preview (2 entries):
SMILES	Marburg entry inh	NS1 function inh	2A StopGo	RE007 growth inh	Cruzain inh noDet	Cruzain Triton	SARS PLpro yeast	Lassa entry inh
C=CCSc1nnc(CCCCCN2C(=O)c3cccc4cccc(c34)C2=O)o1	?	14%	?	-14%	16%	-8.8%	18%	?
Cc1ccc2c(c1)N(CC(=O)c1cccc(Cl)c1)C(=O)C(C)O2 (stereo not given)	10%	7%	-24%	10%	0%	-6.6%	1%	-9%

Main list, previewed entries included:
SMILES	Marburg entry inh	NS1 function inh	2A StopGo	RE007 growth inh	Cruzain inh noDet	Cruzain Triton	SARS PLpro yeast	Lassa entry inh
C=CCSc1nnc(CCCCCN2C(=O)c3cccc4cccc(c34)C2=O)o1	?	14%	?	-14%	16%	-8.8%	18%	?
Cc1ccc2c(c1)N(CC(=O)c1cccc(Cl)c1)C(=O)C(C)O2 (stereo not given)	10%	7%	-24%	10%	0%	-6.6%	1%	-9%
CC(OC(=O)c1ccc2ccccc2n1)C(=O)c1ccccc1 (stereo not given)	/	-4%	46%	-6%	/	/	-1%	/
Cc1ccc(Nc2cc(C)nc(N3CCOCC3)n2)c(C)c1	-42%	-9%	-17%	2%	4%	0.7%	-20%	-13%
CCC1(C)Cc2ccccc2-c2nc(NCCO)[nH]c(=O)c21 (stereo not given)	-11%	1%	-15%	0%	-1%	-14%	8%	10%
Cn1c(=O)n(CC(=O)N2CCOCC2)c2ccccc21	-2%&-2%	-5%	-20%	-6%	7%	1.7%	12%	-11%
O=C(Nc1ccc(Br)cc1F)c1cc(S(=O)(=O)NC2CCCCC2)ccc1F	/	/	15%	/	-6%	-5.6%	/	?
CC(=O)NC(c1ccc(C(C)C)cc1)c1ccc2cccnc2c1O (stereo not given)	?	-122%	-24%	?	/	/	-21%	?
CCOC(=O)c1ccc(N2C(=O)c3n[nH]c(-c4ccco4)c3C2c2ccc(F)cc2)cc1 (stereo not given)	?	/	?	/	-22%	-20%	/	?
CCc1c(C)sc(NC(=O)c2cc(-c3ccco3)on2)c1C#N	25%	-5%	24%	-3%	1%	-6.5%	2%	-14%
O=C(CCc1ccccc1)N1CCN(C(=O)CCc2ccccc2)CC1	7%[46.1 µM]	/	-13%	2%	/	/	/	-8%[46.1 µM]
O=C(c1ccco1)N1CCN(Cc2nnnn2CC2CCCO2)CC1 (stereo not given)	/	1%	-4%	1%	/	/	0%	/
COc1ccc(-n2nc3c(c2NC(=O)CC(C)C)CS(=O)C3)cc1 (stereo not given)	/	-14%	0%	6%	/	/	-5%	/
COc1cccc(CNC(=O)C2CCN(S(=O)(=O)c3cccc4nonc34)CC2)c1	-2%[46.1 µM]	23%	-15%	1%	/	/	1%	16%
CCCNc1[nH]c(=O)n(C)c(=O)c1N=O	15%	4%	15%	15%	2%	-1.6%	-1%	6%
CCOC(=O)Cn1nc(-c2ccccc2)c2cnc3ccc(OCC)cc3c21	2%[46.1 µM]	/	-21%	/	-8%	-4.2%	/	1%[46.1 µM]
O=C(c1ccccc1)C1CN(Cc2ccccc2)CCC1(O)c1ccccc1 (stereo not given)	?	-4%	-7%	-24%	/	/	0%	?
COc1ccc2oc(C(=O)OCC(=O)N(C)CC(=O)Nc3ccc(F)cc3)c(C)c2c1	0%[46.1 µM]	/	0%	-18%	/	/	?	29%
Cc1cccc(C)c1Oc1nc(-c2ccccc2)ncc1S(=O)(=O)c1ccccc1	16%[46.1 µM]	-24%	?	12%	?	-14%	5%	0%
O=C(O)CN(c1ccccc1F)S(=O)(=O)c1ccccc1	13%	15%	-22%	-3%	-1%	3.0%	-4%	5%
c1ccc2c(c1)[nH]c1c(N3CCSCC3)ncnc12	-11%	8%	22µM*	2%	10%	-1.2%	-2%	6%
Nc1nc(SCC(=O)Nc2cccnc2Cl)n[nH]1	-6%	0%	3%	-8%	/	/	-4%	0%
Cc1cc(C(F)(F)F)nn2cnnc12	-7%[46.1 µM]	/	-8%	0%	/	/	2%	11%[46.1 µM]
COc1ccccc1-c1cc(C(F)(F)F)nc(S(=O)(=O)CCCC(=O)NCc2ccc(F)cc2)n1	?	/	14µM*	-10%	/	/	-6%	?
CCc1ccc(NC(=O)C2CCN(S(=O)(=O)c3c(C)noc3/C=C/c3cccs3)CC2)cc1	13%[46.1 µM]	/	?	/	-22%	-4.5%	/	22%[46.1 µM]
CN(C(=O)CCc1nnc(-c2ccc(-c3ccccc3)cc2)o1)C1CCOCC1	-30%	15%	?	-2%	/	/	40%	?
Cc1ccc(NC(=O)c2sc3ncn(CC(=O)N4CCN(c5ccccn5)CC4)c(=O)c3c2C)cc1F	/	22%	-29%	3%	/	/	-5%	/
O=C(O)c1ccc2c(c1)OCCCO2	/	-10%	-16%	30%	/	/	1%	/
C(#Cc1ccccc1)C[N+]1(CC#Cc2cccc3ccccc23)CCOCC1	-16%[46.1 µM]	-1%	-7%	6%	/	/	-1%	-15%[46.1 µM]
CC(=O)Nc1ccc(NC(=O)C2CC(=O)N(c3ccc(Cl)cc3)C2)cc1 (stereo not given)	2%	9%	-19%	-6%	/	/	-5%	-1%
CCCN(CCC)C(=O)Cn1c(=O)n(-c2cccc(C(F)(F)F)c2)c(=O)c2c(C)c(C)sc21	-16%[46.1 µM]	/	-30%	/	4%	-3.8%	/	-1%[46.1 µM]
COC(=O)C(NS(=O)(=O)c1ccccc1Cl)c1ccccc1 (stereo not given)	-6%[46.1 µM]	3%	-2%	-5%	/	/	15%	0%[46.1 µM]
NC(N)=[N+]1CCc2ccccc2C1	?	?	/	/	19%	6.2%	/	?
Brc1ccc(-c2nnc3c4ccccc4nc(N4CCOCC4)n23)cc1	18%	-13%	-10%	-5%	1%	0.6%	-6%	24%
Cc1ccc(NCC(=O)N=Nc2c(O)n(C)c3ccccc23)cc1	?	1%	10%	-14%	/	/	0%	?
Cc1ccc(N(C(=O)c2ccc3c(c2)OCO3)C2C=CS(=O)(=O)C2)cc1 (stereo not given)	-1%	1%	/	-15%	-10%	0.4%	2%	0%
COc1cccc(NC(=O)C2CCN(S(=O)(=O)c3ccc4c(c3)OCCO4)CC2)c1	-3%	-37%	?	44%	13%	5.6%	-11%	-13%
CCOC(=O)Cc1csc(NC(=O)COc2ccc(OC)cc2)n1	/	-84%	?	-6%	-6%	2.2%	-16%	/
COc1ccc(NC(=O)c2ccco2)cc1N	?	6%	25%	-3%	-2%	3.8%	-13%	?
CCN(CC)CCn1c(=S)[nH]c2cc(C(=O)NCc3ccc(C)cc3)ccc2c1=O	/	-9%	11%	6%	/	/	1%	/
CCc1ccc(NC(=O)C/C(C)=N/NC(=O)OCc2ccc(OC)cc2)cc1	31%	-6%	0%	4%	?	-0.6%	1%	?
O=C(/C=C/c1ccc(OCCCF)cc1)N1CCOCC1	/	2%	57%[activator]	-3%	/	/	2%	/
COc1ccccc1/C=N/NC(=O)CNC(=O)c1ccc(S(=O)(=O)N2CCCC2)cc1	14%[46.1 µM]	/	-4%	-14%	/	/	2%	-1%[46.1 µM]
CCCCCC(=O)NC(=S)Nc1ccc(N2CCCCC2)c(Cl)c1	?	-1%	-7%	-13%	-1%	-5.1%	-1%	-22%
CC(Cc1ccccc1)[n+]1cc(/N=C(\N)[O-])on1 (stereo not given)	21%	4%	10%	13%	1%	-4.3%	0%	16%
COc1ccc(C)cc1C(=O)C1CC(C(=O)O)C(C)(C)C1C (stereo not given)	8%	-13%	4%	1%	-4%	1.7%	1%	1%
CC(C)COC(=O)Nc1ccc(C(=O)O)cc1	6%	-21%	18%	1%	-5%	1.1%	0%	14%
CC(C)Oc1ccc(-c2nc(NCC3CCCO3)c3ccccc3n2)cc1 (stereo not given)	?	-5%	?	2%	/	/	-3%	?
COc1ccccc1N1CCN(CCc2n[nH]c(=S)n2-c2ccccc2)CC1	-2%	5%	-13%	-7%	-2%	4.5%	4%	0%
Cc1cc(-n2c(C)cc(C(=O)CN3C(=O)NC4(CCCCC4C)C3=O)c2C)no1 (stereo not given)	-20%	-1%	/	7%	-30%	5.5%	-1%	-5%
COc1ccc(S(=O)(=O)N2CCC(n3cnc4cc(C(F)(F)F)ccc43)CC2)cc1	-25%	-59%	-8%	9%	17%	-6.4%	-10%	-1%
O=C1CCCC2=C1C1(CCCC1)N=C(Nc1nc3ccccc3o1)N2	/	1%	-10%	/	11%	1.1%	-1%	/
COc1cccc(-c2nc(CS(=O)CC(=O)NCCCOC(C)C)c(C)o2)c1 (stereo not given)	-1%	3%	-21%	-5%	10%	-0.3%	4%	15%
Cc1ccccc1C(=O)NC=C1C(=O)OC(C)(C)OC1=O	9%[46.1 µM]	/	-20%	-12%	/	/	0%	1%[46.1 µM]
COc1ccc(OC)c(S(=O)(=O)N2CCN(CC(O)COc3ccccc3)CC2)c1 (stereo not given)	?	-15%	?	-28%	/	/	-3%	10%
CCCS(=O)(=O)N1CCCC(C(=O)NCCc2ccc(OC)c(OC)c2)C1 (stereo not given)	?	0%	-23%	20%	3%	5.3%	1%	1%
O=C(NC1(C(F)(F)F)NC(=O)N(C2CCCCC2)C1=O)c1ccco1 (stereo not given)	?	/	?	3%	/	/	-3%	1%
O=C(CCc1nc2sc3c(c2c(=O)[nH]1)CCCC3)Nc1ccccc1Cl	-16%[46.1 µM]	/	-12%	9%	/	/	2%	4%
O=C(O)C(O)(c1ccccc1)C1CCCC1 (stereo not given)	1%	7%	-4%	7%	0%	3.2%	-3%	6%
Cc1cc(C)c(S(C)(=O)=O)c(S(=O)c2ccc(Cl)cc2)n1 (stereo not given)	10%	-9%	2%	7%	3%	2.8%	?	2%
COC(=O)C(C)Sc1nnc(Cc2cc(=O)[nH]c(=O)[nH]2)n1-c1ccc(Cl)cc1 (stereo not given)	0%	-57%	/	/	2%	-2.1%	2%	/
O=C(c1ccco1)N1CCN(C(=S)Nc2cc(F)cc(F)c2)CC1	-3%[46.1 µM]	3%	11%	4%	/	/	-3%	?
